# From PubChem BioAssay
# NPYLR7 agonist: mosquito NPYLR7 agonism; HEK293T NPYLR7/Galpha15, GCaMP6s calcium fluorescence; activation, % at 10 µM; hit rate 0.15% among 270,000; in the data active = activation above about 40%;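 note: 0% = vehicle and 100% = reference agonist at the receptor; some compounds past the cut are filed as inactive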
# NPYLR7 agonist max-min: also measured in NPYLR7 agonist; calls as there; activation, %; measured here: Max-Min RFU normalised activation; some inactives read as strong as hits;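 span of the calcium signal over five minutes; 0% = vehicle and 100% = native peptide agonist; compound fluorescence can raise it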
# Starred values were filed as active, the others as inactive.
SMILES,NPYLR7 agonist,NPYLR7 agonist max-min
CN(C)S(=O)(=O)c1ccc(C(=O)OCc2cc(-c3cc4ccccc4o3)on2)cc1,-2,-2
O=C(Cn1cc(OCc2ccc(F)cc2)c(=O)cc1CO)NCCc1ccccc1,-1,-2
CC(C)c1noc(C(C)N2CCN(c3ncnc4[nH]ccc34)CC2)n1 (centres undefined),2,0
Brc1ccc(OCCSc2nnc(NC3CC3)s2)cc1,7,12
CCOC(=O)N1CCc2c(sc(NC(=O)C3=COCCO3)c2-c2nc3ccccc3s2)C1,17,16
CCOC(=O)c1c(NC(=O)COC(=O)c2ccc3ccccc3n2)sc2c1CCC2,2,-1
OC1(CN2CCC3(CC2)OCCO3)CCCCC1,-2,765
Cn1cnnc1SCC(=O)N1c2ccccc2C(C)(c2ccccc2)CC1(C)C (centres undefined),-3,-9
O=S(=O)(NC1CCCCCC1)c1ccc(F)cc1,6,5
Cc1c(Cl)cccc1N1C(=O)C2C3C=CC(C3)C2C1=O (centres undefined),-14,-15
Cc1cc(N2Cc3cnn(Cc4ccc(F)cc4)c3C2)nc(N)n1,16,14
COc1cccc(C(=O)N2CCC(n3nccc3NC(=O)C(OC)c3ccccc3)CC2)c1 (centres undefined),-2,-2
CN1C[C@@H]2CC[C@H](CC1=O)N2C(=O)c1nc2ccccc2[nH]c1=O,2,-2
CCCCCCCCCn1c(N2CCNCC2)nc2c1c(=O)[nH]c(=O)n2C,11,6
O=C(NN1CCN(Cc2ccccc2Cl)CC1)c1ccc(Br)cc1,3,0
N#CC(=Cc1ccc(Cl)cc1Cl)C(N)=O,22,15
O=C(c1ccc2ccccc2c1)N1CCc2nc(-c3ccccc3)nc(N3CCCCC3)c2C1,-8,1
CNC(=O)CC12CC3CC(CC(C3)C1)C2,4,10
CCNC(=O)N1C2CCC(C2)C1C(=O)OCC (centres undefined),-1,-4
Fc1cc(-c2cccc3ncc(-c4cnn(C5CCNCC5)c4)nc23)cc(F)c1CN1CCOCC1,1,-5

# Exported with values under each structure: 15 of the compounds above.
# Under each structure – NPYLR7 agonist, NPYLR7 agonist max-min
> CN(C)S(=O)(=O)c1ccc(C(=O)OCc2cc(-c3cc4ccccc4o3)on2)cc1
→ -2, -2
> O=C(Cn1cc(OCc2ccc(F)cc2)c(=O)cc1CO)NCCc1ccccc1
→ -1, -2
> CC(C)c1noc(C(C)N2CCN(c3ncnc4[nH]ccc34)CC2)n1 (centres undefined)
→ 2, 0
> Brc1ccc(OCCSc2nnc(NC3CC3)s2)cc1
→ 7, 12
> CCOC(=O)N1CCc2c(sc(NC(=O)C3=COCCO3)c2-c2nc3ccccc3s2)C1
→ 17, 16
> CCOC(=O)c1c(NC(=O)COC(=O)c2ccc3ccccc3n2)sc2c1CCC2
→ 2, -1
> OC1(CN2CCC3(CC2)OCCO3)CCCCC1
→ -2, 765
> Cn1cnnc1SCC(=O)N1c2ccccc2C(C)(c2ccccc2)CC1(C)C (centres undefined)
→ -3, -9
> O=S(=O)(NC1CCCCCC1)c1ccc(F)cc1
→ 6, 5
> Cc1c(Cl)cccc1N1C(=O)C2C3C=CC(C3)C2C1=O (centres undefined)
→ -14, -15
> Cc1cc(N2Cc3cnn(Cc4ccc(F)cc4)c3C2)nc(N)n1
→ 16, 14
> COc1cccc(C(=O)N2CCC(n3nccc3NC(=O)C(OC)c3ccccc3)CC2)c1 (centres undefined)
→ -2, -2
> CN1C[C@@H]2CC[C@H](CC1=O)N2C(=O)c1nc2ccccc2[nH]c1=O
→ 2, -2
> CCCCCCCCCn1c(N2CCNCC2)nc2c1c(=O)[nH]c(=O)n2C
→ 11, 6
> O=C(NN1CCN(Cc2ccccc2Cl)CC1)c1ccc(Br)cc1
→ 3, 0

# Remaining list, next part:
SMILES,NPYLR7 agonist,NPYLR7 agonist max-min
CC(c1ccccc1)N1CCN(C(=O)c2ccc(F)c(F)c2)CC1 (centres undefined),6,3
CC(C)Oc1ccc(CNCC2(C(N)=O)CCOCC2)cc1,-5,-5
CC1CCC(NC(=O)C2CC=CCC2C(=O)N2CCN(c3ccccn3)CC2)CC1 (centres undefined),-7,-13
COc1cc(Cl)c(S(=O)(=O)N2CCN(C(=O)c3ccc(=O)[nH]c3)CC2)cc1Cl,0,-2
CN(Cc1nccn1C)C(=O)CNC(=O)c1cc(F)cc(F)c1,3,4
CCn1c(=O)c2c(nc3n2CCN3c2ccc(C)c(Cl)c2)n(C)c1=O,-2,-4
Cc1nc(SCc2coc(-c3cccs3)n2)c2c(C)c(C)sc2n1,0,1
CNS(=O)(=O)c1ccc(-c2nccn2C(C)c2nncn2C)cc1 (centres undefined),9,8
Cc1nnc(NC(=O)C(C)SC(F)(F)F)s1 (centres undefined),-3,-2
CCC(C)C(NC(=O)COCc1ccccc1)C(=O)Nc1nnc(-c2ccc(Br)cc2)s1 (centres undefined),-9,-7
CCN(Cc1ccco1)C(=O)Nc1cccnc1N1CCCC1,0,-2
CCc1ccc(-n2ncc(C(=O)N3CCC4(CC3)OCCO4)c2-n2cccc2)cc1,-11,-11
CC1C(=O)N(c2cccc(F)c2)CCN1Cc1ccccc1F (centres undefined),1,4
CCCCC(=O)N[C@@H]1c2ccccc2C2(CCNCC2)[C@H]1OCc1cccnc1,4,7
Cc1ccccc1CSc1nc(Oc2ccccc2F)cc(C(F)(F)F)n1,0,11
C=Cc1ccc(C(=O)N2CC[C@H]3CC[C@@H](C2)N3)cc1,-1,-4
Cc1cc(C(=O)NNC(=O)c2cc(C(C)C)nc3ccccc23)c(C)o1,3,4
Cn1c(SCC(=O)NC2CCS(=O)(=O)C2)nnc1-c1ccco1 (centres undefined),7,2
CN(Cc1ccc(C(F)(F)F)cc1)C(=O)CC(NC(N)=O)c1ccccc1 (centres undefined),2,1
COCCN(Cc1nc2scc(-c3ccc(Cl)cc3)c2c(=O)[nH]1)CC(O)Cc1ccccc1 (centres undefined),1,18
Cc1nn(-c2ccccc2)c2[nH]cc(C(=O)N3CCCc4ccccc43)c(=O)c12,7,18
COc1ccc(OC)c2sc(N(Cc3ccccc3)C(=O)CCS(=O)(=O)c3ccccc3)nc12,0,-3
COc1cc(NC(=O)Cn2nc([N+](=O)[O-])c(Br)c2C)c(OC)cc1Cl,0,-6
OCc1ccc(CN2CCOC(Cc3cccc(F)c3)C2)o1 (centres undefined),18,7
CCOC(=O)Cc1csc(SC2CCOC2=O)n1 (centres undefined),2,1
CCOC(=O)CC(C)NC(=S)N1CCCC(C(=O)N(CC)CC)C1 (centres undefined),-7,-7
c1coc(-c2nnc(CN3CCOC(CC4CCCCC4)C3)o2)c1 (centres undefined),6,-3
CCOC(=O)C1CCN(C(c2ccc(OCC)c(OC)c2)C2Sc3nc(C)nn3C2=O)CC1 (centres undefined),-1,-2
CCOC(=O)c1ccc(NC(=O)N2CCCN(c3nc(Cc4ccc(C)cc4)ns3)CC2)cc1,10,15
COc1ccc(-c2cc(C(=O)NCCCN3CCCCC3C)c(C)n2-c2ccccc2Cl)cc1 (centres undefined),-2,5
O=C1CCCN1C1CCN(Cc2cnc(N3CCOCC3)nc2)CC1,4,3
N#Cc1c(-c2ccco2)[nH]c(=S)[nH]c1=O,-6,-9
CC1Sc2ccc(C#N)cc2N(Cc2ccc(F)cc2)C1=O (centres undefined),-4,-5
CCOC(=O)N1CCN(C(c2ccc(Cl)cc2)c2c(O)cc(C)n(CC)c2=O)CC1 (centres undefined),12,1
O=C1CCCN1Cc1nc(C2(c3ccccc3)CC2)no1,14,10
COc1cc(-c2ccnc(N3CCN(S(=O)(=O)c4ccccc4C(F)(F)F)CC3)n2)cc(OC)c1OC,7,2
Cc1cccc(C(=O)Nc2cccc(-c3nc4cc(Cl)ccc4o3)c2)c1,-1,-9
COc1cccc(-c2cncc(CN(C)Cc3ccco3)c2)c1,3,3
Cc1ccccc1SCC(=O)N1CCCC2(CN(C)C(=O)O2)C1 (centres undefined),4,2
CC1CC(Sc2ncc(-c3ccccc3)[nH]2)C(=O)O1 (centres undefined),1,-2
COc1ccc2cc(C(C)C(=O)N(CC3CCCO3)C3CCS(=O)(=O)C3)ccc2c1 (centres undefined),2,1
N#Cc1cccc(NNC(=O)NCCc2ccc(F)cc2)c1,2,0
CCNc1nnc(S(=O)(=O)Cc2c(C)cc(C(C)(C)C)cc2C)s1,11,9
Cc1ccc(C(=O)NC23CC4CC(CC(C4)C2)C3)cc1Cl,-7,-9
FC(F)(F)c1ccc(Cl)c(-n2c(C3C4CCCCC43)n[nH]c2=S)c1 (centres undefined),-8,-15
O=C(O)/C(=C/c1ccco1)n1nnnc1-c1ccccc1,3,0
Cc1noc(CCNC(=O)c2ccc(Br)c(S(=O)(=O)N(C)C)c2)n1,10,7
O=S(=O)(c1ccc(Cl)cc1)c1cnc2cc3c(cc2c1N1CCCCC1)OCCO3,2,1
COc1ccc(-c2nn(CC(=O)N3CCCc4ccccc43)c(=O)c3nc(C)sc23)cc1,2,-2
O=S(=O)(NCCOc1ccc(-c2ccccc2)nn1)c1ccccc1C(F)(F)F,-8,-17
CCCCCCCCCCCC(=O)N(CC(=O)NCC(=O)Nc1cccc(C)c1)Cc1ccccc1,-1,9
Cc1cc(C)nc(CCNC(=O)CCNC(=O)c2ccc(F)cc2)n1,2,1
Cc1cccc(CN2CCCC3(CCN(C(=O)c4ccc(C#CC(C)(C)O)cc4)C3)C2)c1 (centres undefined),10,-2
CCN(CC)CCn1c2c(c(SCC(=O)Nc3nc4ccc(C)cc4s3)nc1=O)CCC2,-5,-8
NC(=O)c1nnc2n1CCN(Cc1ccc3ccccc3c1)C2,5,3
Clc1ccc(-c2nnn3c2nc(NCc2cccs2)c2ccccc23)cc1,-2,-11
Cc1ccccc1-c1noc(SCC(=O)N2CC(C)OC(C)C2)n1 (centres undefined),7,2
O=C(NCCc1ccc2c(c1)OCCO2)c1cccc(S(=O)(=O)N2CCOCC2)c1,2,9
COc1ccc(C2Nc3ccc(Br)cc3-c3nnc(SC)nc3O2)c(OC)c1 (centres undefined),5,3
Cc1c(-c2cccc(CN3CCOCC3)c2)c(=O)[nH]c2ccccc12,1,-3
# Going on with the list.
SMILES,NPYLR7 agonist,NPYLR7 agonist max-min
CCC/C=C/c1ccc(-c2nc(C)no2)cn1,1,-3
Cc1ccc(C=NN2CCN(C)CC2)o1,12,11
CC(Oc1cccc(F)c1)C(=O)N1CCSC2CCCCC21 (centres undefined),0,9
COc1cccc2c1OCC(c1n[nH]c(CCc3ccccc3)n1)C2 (centres undefined),18,10
Cc1ccc2oc(C(=O)N(C)C(C)c3nccs3)cc2c1 (centres undefined),-5,-9
Cc1cc(C)n(C(C)C(=O)N(Cc2nccn2C)C2CC2)n1 (centres undefined),-1,-8
N#Cc1ccccc1-c1ccc(COc2coc(CN3CCN(C(=O)c4cc5ccccc5s4)CC3)cc2=O)cc1,21,15
c1ccc(Cc2nn3c(Cn4nnc5ccccc54)nnc3s2)cc1,0,-1
O=C(NNS(=O)(=O)c1ccccc1F)c1cc2c(s1)CCCCC2,1,6
COc1ccc(C(=O)NC2CCC(NC(=O)[C@H]3CCCN3C(=O)N(C)C)CC2)cc1 (some centres undefined),13,18
CC1Oc2ccccc2C=C1/C=N\Nc1nc2ccccc2[nH]1 (centres undefined),-3,-6
Cc1ccc(-c2noc(C(C)(C)Oc3ccc(Cl)cc3)n2)cc1,9,10
CCC(CO)(NCc1cc(C#N)ccc1F)c1ccccc1 (centres undefined),1,-5
CCCCN1CCN(c2nc3c(c(=O)[nH]c(=O)n3C)n2Cc2ccc(Cl)cc2Cl)CC1,1,12
CCCC1(CCC)NC(=O)N(Cc2ccc(S(=O)(=O)N(C)C)o2)C1=O,1,1
CC1CCC2(CC1)C(=O)N(CC(=O)NC(C)C)C(=O)N2C (centres undefined),-1,-3
Cc1ccc(NC(=O)c2cc(S(=O)(=O)NCCC3=CCCCC3)ccc2F)cc1,-5,-6
Cc1nc(C(=O)NC(c2ccccc2)C(F)(F)F)cs1 (centres undefined),0,0
CCc1nc2ccc(C(=O)NCCCN3CCCC3=O)cn2c1N(C)CCCc1ccccc1,17,10
COc1ccccc1NC(=O)NCCNc1cc(N2CCOCC2)nc(C)n1,0,0
Cn1c(=O)n(CCC(=O)N2CCN(S(=O)(=O)c3ccccc3)CC2)c2ccccc21,-7,-5
O=Cc1c(-[n+]2ccc(-c3ccncc3)cc2)[nH]c(=O)n1-c1ccccc1,-12,-17
Cc1ccc(C(=O)Nc2ccccc2)cc1S(=O)(=O)Nc1ccc(Cl)cn1,5,5
COc1ccc(/C=C2\C(=O)N(c3ccccc3)N=C2C)cc1[N+](=O)[O-],-6,-17
COc1cccc(CSc2nnc(CNC(=O)Nc3ccc(F)c(F)c3)n2-c2cc(Cl)ccc2Cl)c1,-1,9
Cc1cc2c(cc1C)C(N(CC(=O)N(C)c1nccs1)C1CC1)CCCO2 (centres undefined),5,2
N#C/C(=C\Nc1cc(Cl)ccc1O)C(=O)NC(=O)Cc1ccccc1,0,-2
COCCn1c(CNCC2CC2)cnc1S(=O)(=O)Cc1ccc(C)cc1,22,11
CCOC(=O)c1c(C)n(-c2ccccc2)c2ccc(OC(=O)c3ccc(Cl)cc3Cl)cc12,-7,2
Clc1ccc(C2(c3ccc(-c4cn[nH]c4)cc3)CCNCC2)cc1,-6,-10
O=C(CSc1nc2scc(-c3cccs3)c2c(=O)[nH]1)c1ccc[nH]1,2,8
CCOc1ccc2nc(S(=O)(=O)NC(=O)C3(C)CCN3C(=O)c3c(C)noc3C)sc2c1 (centres undefined),2,2
Cc1ccc(NC(=O)NCc2ccncc2)c(OCCN(C)C)c1,1,-2
COc1ccccc1C(NC(=O)C1CCN(Cc2ccc(Cl)cc2)CC1)c1ccccn1 (centres undefined),4,4
CCOc1ccc(-n2c(C)cc(C=NNc3nc4ccccc4s3)c2C)cc1,-6,-9
COc1ccc(Cl)cc1N1CCN(C(=O)CC(C)C)C(C)C1=O (centres undefined),-5,5
Cc1cc(Cl)ccc1OC(C)C(=O)NC(C)CCC1CCCO1 (centres undefined),4,2
O=C(CNS(=O)(=O)c1ccc(I)cc1)NN1C(=O)c2ccccc2C1=O,3,3
Cc1noc(C)c1C(=O)Nc1sc2c(c1C(N)=O)CCC(C)C2 (centres undefined),-3,-3
CN(CC(O)COCc1ccccc1NCc1ccc2ncccc2c1)C1CCCCC1 (centres undefined),3,4

# The list is partial. The share of hits here may be higher or lower than overall.
